# Ecoli rRNA inh: inhibitors of bacterial rRNA selective over humanized ribosomes | E. coli WT GFP vs humanized-ribosome RFP mutants, fluorescence, 24 h; stronger effect = lower value; DMSO median 0, no signal -100 | GFP signal change (wild-type ribosome), % (concentration not given with the values) | actives 1.6% (n = 350,000) | AID 720706;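 active means significant combined selectivity score with lowered wild-type GFP, culture density cut under 30%, mutant RFP and density less affected; inactive means any of these conditions unmet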; further: one replicate is shown; some compounds called inactive have numbers as strong as hits
# Ecoli rRNA inh OD600: further read-out of Ecoli rRNA inh, marked with its call; OD600 change, %; measured here: OD600 growth;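 optical density of the mix in the first replicate; 0 = DMSO median and -100 = no signal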
# Ecoli rRNA inh RFP: second read-out of Ecoli rRNA inh, no call of its own (marks repeat the call); RFP signal change, %; measured here: RFP humanized mutant strains;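 first replicate; 0 = DMSO median and -100 = no signal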
# An asterisk follows results filed as active; & = joins results of further samples.
item	Molecule	Ecoli rRNA inh	Ecoli rRNA inh OD600	Ecoli rRNA inh RFP
1	C[C@@H]1CCCCO[C@@H](CN(C)Cc2ccncc2)[C@H](C)CN([C@H](C)CO)C(=O)c2cc(NC(=O)CCCN(C)C)ccc2O1	4	12	-0.2
2	CC(C)NC(=O)Nc1ccc2c(c1)C(=O)N(C)C[C@H](C)[C@@H](CN(C)C(=O)OC(C)(C)C)O2	-1	-7	0.8
3	Cc1ccccc1S(=O)(=O)Nc1ccc2c(c1)C(=O)N(C)[C@H]1CC[C@@H](CC(=O)O)O[C@@H]1CO2	2	11	-2.7
4	C[C@@H]1CN(C)C(=O)Cc2ccccc2O[C@H]1CN(C)C(=O)OC(C)(C)C	-1	3	-0.6
5	CC(=O)N(C)C[C@@H]1Oc2ccc(N)cc2CC(=O)N(C)C[C@@H]1C	1	3	-2.4
6	CC(C)NC(=O)N1[C@H](CO)[C@@H](c2ccccc2)[C@H]1CNC(=O)CN(C)C	1	10	-4.6
7	CNC[C@H]1OCCCC[C@@H](C)Oc2ccc(NC(=O)Nc3ccc(C(F)(F)F)cc3)cc2C(=O)N([C@H](C)CO)C[C@H]1C	0	-28	17
8	COCC#Cc1ccc([C@@H]2[C@@H](CO)N3CCCCN(C(=O)Nc4cc(F)ccc4F)C[C@@H]23)cc1	0	-16	-0.8
9	CCC(=O)N1[C@@H](CO)[C@H](c2ccc(-c3ccccc3)cc2)[C@@H]1CNC(=O)COC	-1	1	0.2
10	O=C1N[C@@H](c2ccccc2)COCc2cnnn2CC[C@H]1Cc1ccc(C(F)(F)F)cc1	3	3	-0.7
11	COc1ccc(-c2ccc3c(c2)[C@@H]2[C@@H](CCN2Cc2ccncc2)[C@@H](CO)N3)cc1	-3	-5	0.0
12	C[C@@H]1CN([C@H](C)CO)C(=O)c2cccc(NC(=O)CCCCCC(=O)Nc3ccccc3N)c2O[C@@H]1CN(C)C(=O)Nc1ccccc1	-2	-2	-3.4

# From no. 2 to 5, copied from above:
item	Molecule	Ecoli rRNA inh	Ecoli rRNA inh OD600	Ecoli rRNA inh RFP
2	CC(C)NC(=O)Nc1ccc2c(c1)C(=O)N(C)C[C@H](C)[C@@H](CN(C)C(=O)OC(C)(C)C)O2	-1	-7	0.8
3	Cc1ccccc1S(=O)(=O)Nc1ccc2c(c1)C(=O)N(C)[C@H]1CC[C@@H](CC(=O)O)O[C@@H]1CO2	2	11	-2.7
4	C[C@@H]1CN(C)C(=O)Cc2ccccc2O[C@H]1CN(C)C(=O)OC(C)(C)C	-1	3	-0.6
5	CC(=O)N(C)C[C@@H]1Oc2ccc(N)cc2CC(=O)N(C)C[C@@H]1C	1	3	-2.4

# Later entries:
item	Molecule	Ecoli rRNA inh	Ecoli rRNA inh OD600	Ecoli rRNA inh RFP
13	COc1ccc([C@H]2C/C=C\C[C@H](c3ccccc3)NC(=O)CCC(=O)N2)c(OC)c1	4	2	-5.6
14	C[C@@H]1CN([C@@H](C)CO)C(=O)c2ccccc2-c2ccccc2CO[C@@H]1CN(C)S(=O)(=O)c1ccc(C#N)cc1	-1	-3	-0.9
15	C[C@@H]1CN([C@@H](C)CO)C(=O)c2cc(/C=C/c3ccccc3)cnc2O[C@@H]1CN(C)C(=O)C1CC1	3	2	-0.1
16	CO[C@H]1CN(C)C(=O)c2cc(NC(=O)c3ccc(F)cc3)ccc2OC[C@@H](C)NC[C@H]1C	0	4	-0.7
17	CC(=O)N1[C@H](CO)[C@@H](c2ccc(-c3ccc(F)cc3)cc2)[C@@H]1CNC(=O)C1CC1	-3	-4	2.2
18	CC(=O)Nc1ccc2c(c1)CC(=O)N(C)C[C@H](C)[C@H](CN(C)C(C)=O)O2	-1	0	-0.3
19	C[C@@H]1CC=CC[C@@H](c2ccc3c(c2)OCO3)NC(=O)[C@@H](C)N(C)C(=O)c2ccccc2O1 (mixture of isomers)	-2	-24	0.9
20	CO[C@@H]1CN(C)C(=O)c2cc(NS(C)(=O)=O)ccc2OC[C@@H](C)N(Cc2cccnc2)C[C@@H]1C	1	-2	0.4
21	C[C@H]1CN(C)C(=O)c2cccc(NS(C)(=O)=O)c2O[C@H]1CN(C)C	0	5	-0.6
22	COc1ccc2c3c([nH]c2c1)[C@H](CO)N(Cc1ccccc1OC)CC31CN(C(C)=O)C1	1	1	-1.0
23	C[C@@H]1CN([C@@H](C)CO)S(=O)(=O)c2ccc(-c3ccc(F)cc3)cc2O[C@H]1CN(C)C(=O)C1CCC1	-5	0	-0.4
24	CN(C)C(=O)c1ccc(-c2ccc3c(c2)[C@@H]2[C@@H](CCN2C(=O)c2ccccc2F)[C@H](CO)N3)cc1	-4	-5	2.3

# Additional results.
item	Molecule	Ecoli rRNA inh	Ecoli rRNA inh OD600	Ecoli rRNA inh RFP
25	COc1ccc(S(=O)(=O)N(C)C[C@@H]2Oc3ccc(NC(=O)NC(C)C)cc3C(=O)N([C@H](C)CO)C[C@@H]2C)cc1	1	1	-0.4
26	CNC[C@H]1OCc2cn(nn2)CCCC(=O)N([C@@H](C)CO)C[C@H]1C	1	-3	0.4
27	COc1ccccc1C(=O)N1C[C@@H]2[C@H](c3ccccc31)[C@@H](CO)N2Cc1ccc(F)cc1	-4	-11	1.3
28	CC(C)NC(=O)N(C)C[C@H]1Oc2c(NS(=O)(=O)c3cccs3)cccc2C(=O)N([C@H](C)CO)C[C@H]1C	0	-2	-2.2
29	C[C@@H]1CN([C@@H](C)CO)C(=O)c2ccccc2-c2ccccc2CO[C@H]1CN(C)Cc1ccncc1	-4	-5	-4.9
30	C[C@H]1CN([C@@H](C)CO)C(=O)Cc2cc(NC(=O)NC3CCCCC3)ccc2O[C@H]1CN(C)Cc1ccc(C(=O)Nc2ccccc2N)cc1	-49	-72	-14
31	CC(C)NC(=O)N(C)C[C@H]1Oc2ccc(N(C)C)cc2CC(=O)N(C)C[C@H]1C	-1	5	0.9
32	COc1cccc(CN(C)C[C@H]2OCc3ccccc3-c3ccccc3C(=O)N([C@H](C)CO)C[C@H]2C)c1	-4	-30	2.6
33	C[C@H](CO)N1C[C@H](C)[C@@H](CN(C)S(=O)(=O)c2ccccc2F)OCc2ccccc2-c2ccccc2C1=O	-5	-31	2.0
34	CCCNC(=O)NC[C@@H]1[C@@H](c2ccc(C3=CCCC3)cc2)[C@H](CO)N1C(C)=O	-2	-4	2.5
35	CC(=O)N(C)C[C@H]1Oc2cc(C#CC3CC3)ccc2S(=O)(=O)N([C@H](C)CO)C[C@@H]1C	-1	5	-0.6
36	Cc1ccc(S(=O)(=O)Nc2cccc3c2O[C@@H](CN(C)S(=O)(=O)c2ccccc2)[C@@H](C)CN([C@H](C)CO)C3=O)cc1	-4	-11	-1.2

# Carrying on:
item	Molecule	Ecoli rRNA inh	Ecoli rRNA inh OD600	Ecoli rRNA inh RFP
37	CC(C)[C@H]1COCn2nncc2CC[C@H](Cc2ccc(Cl)cc2)C(=O)N1	1	0	1.5
38	CC(C)CC#Cc1ccc2c(c1)O[C@H](CN(C)Cc1ccccc1)[C@@H](C)CN([C@H](C)CO)S2(=O)=O	3	-11	-1.7
39	CC(=O)N1CC2(C1)[C@@H](c1ccc(-c3ccccc3C)cc1)[C@H](CO)N2C(C)=O	1	-7	-2.7
40	CCCC#Cc1ccc2c(c1)O[C@H](CN(C)C(=O)C1CCCCC1)[C@H](C)CN([C@@H](C)CO)S2(=O)=O	-1	10	3.2
41	COc1ccc2c3c(n(C)c2c1)[C@H](CO)N(C(=O)c1ccccn1)CC31CN(C(C)=O)C1	3	11	-2.5
42	C[C@H]1CN([C@@H](C)CO)S(=O)(=O)c2ccc(C3=CCCCC3)cc2O[C@H]1CN(C)C	6	5	-3.2
43	CNC[C@H]1Oc2ccc(NS(C)(=O)=O)cc2C(=O)N(C)C[C@H]1C	3	6	0.2
44	CC(=O)Nc1ccc2c(c1)C(=O)N(C)C[C@H](C)[C@H](CN(C)C(=O)OC(C)(C)C)O2	-4	-14	-3.6
45	CC(=O)N(C)C[C@@H]1Oc2c(NS(C)(=O)=O)cccc2C(=O)N(C)C[C@@H]1C	3	12	1.2
46	Cc1cc(C(=O)Nc2cccc3c2O[C@H](CN(C)C(=O)Nc2cccc4ccccc24)[C@@H](C)CN([C@@H](C)CO)C3=O)n(C)n1	3	6	1.9
47	CC(C)NC(=O)Nc1ccc2c(c1)CC(=O)N(C)C[C@H](C)[C@@H](CN(C)S(C)(=O)=O)O2	1	-1	-1.5
48	COCC(=O)Nc1ccc2c(c1)OC[C@H](C)N(Cc1cncnc1)C[C@@H](C)[C@H](OC)CN(C)C2=O	3	0	-3.1

# Next part:
item	Molecule	Ecoli rRNA inh	Ecoli rRNA inh OD600	Ecoli rRNA inh RFP
49	COc1ccc2c3c([nH]c2c1)[C@H](CO)N(Cc1nccs1)CC31CCN(Cc2nccs2)CC1	1	5	2.6
50	CO[C@@H]1CN(C)C(=O)c2cc(NC(=O)Nc3ccc(Cl)c(Cl)c3)ccc2OC[C@H](C)NC[C@H]1C	-6&-57	-11&-78	13&-20
51	C[C@H]1CN([C@@H](C)CO)C(=O)Cc2cc(NC(=O)CCCCCC(=O)Nc3ccccc3N)ccc2O[C@H]1CN(C)S(=O)(=O)c1ccc(Cl)cc1	3	-5	3.3
52	C[C@@H]1CN([C@H](C)CO)C(=O)c2cc(C#Cc3cccc(F)c3)cnc2O[C@@H]1CN(C)C(=O)C1CCOCC1	5	1	-0.8
53	O=C(C[C@H]1C[C@H]2c3cc(NC(=O)C4CCC4)ccc3O[C@H]2[C@@H](CO)O1)NC1CCCCC1	1	9	0.5
54	O=C1CCC(=O)N[C@@H](c2ccccc2)C/C=C\CCN1	6	9	-1.4
55	CO[C@H]1CN(C)C(=O)c2cc(NS(C)(=O)=O)ccc2OC[C@H](C)N(Cc2ccccn2)C[C@@H]1C	5	3	-3.1
56	COc1ccc(-c2cnc3c(c2)C(=O)N([C@H](C)CO)C[C@@H](C)[C@H](CN(C)C(=O)C2CC2)O3)cc1	-1	5	-2.0
57	COc1ccccc1C#Cc1ccc2c(c1)[C@H]1[C@H](CCN1S(=O)(=O)c1ccc(C)cc1)[C@H](CO)N2C	1	3	-5.2
58	C[C@@H]1CCCCO[C@H](CN(C)Cc2ccccc2)[C@H](C)CN([C@@H](C)CO)C(=O)c2cc(NC(=O)CCC(F)(F)F)ccc2O1	0	-5	1.2
59	CCN(C[C@H]1[C@H](c2ccccc2)[C@H](CO)N1C(=O)C1CC1)C(=O)NC1CCCC1	-1	-15	-2.3
60	C[C@@H]1CN([C@H](C)CO)C(=O)c2cc(C3=CCCC3)cnc2O[C@H]1CN(C)Cc1ccccc1F	0	-1	2.5

# Further records.
item	Molecule	Ecoli rRNA inh	Ecoli rRNA inh OD600	Ecoli rRNA inh RFP
61	CCCC#Cc1ccc([C@H]2[C@@H](CO)N3C(=O)CN(C(=O)Nc4ccccc4)C[C@H]23)cc1	0	8	2.5
62	O=C(NC1CCCC1)N1CCCCN2[C@H](CO)[C@H](c3ccc(/C=C/c4ccccc4)cc3)[C@@H]2C1	-53	-55	0.2
63	COCC(=O)Nc1ccc2c(c1)OC[C@@H](C)N(CC1CCCCC1)C[C@@H](C)[C@@H](OC)CN(C)C2=O	1	5	-1.0
64	CCCN(C)C[C@@H]1Oc2cc(C3=CCCC3)ccc2S(=O)(=O)N([C@H](C)CO)C[C@@H]1C	1	-7	0.4
65	COc1ccc(CNC(=O)N(C)C[C@H]2OCc3ccccc3-c3ccccc3C(=O)N([C@@H](C)CO)C[C@@H]2C)cc1	-3	1	-1.3
66	COc1cccc(CN(C)C[C@H]2OCc3cn(nn3)CCCC(=O)N([C@H](C)CO)C[C@H]2C)c1	-2	-1	-0.5
67	COc1ccc(NC(=O)Nc2ccc3c(c2)CC(=O)N([C@H](C)CO)C[C@H](C)[C@H](CN(C)S(=O)(=O)c2ccc(C)cc2)O3)cc1	-1	3	-0.5
68	CNC[C@@H]1Oc2ccc(NC(=O)NC(C)C)cc2CC(=O)N(C)C[C@H]1C	0	-2	-1.1
69	C[C@@H]1CN([C@H](C)CO)C(=O)c2cc(Br)cnc2O[C@@H]1CN(C)C(=O)C1CC1	3	8	-3.7
70	CC(=O)Nc1cccc2c1O[C@@H](CN(C)S(C)(=O)=O)[C@H](C)CN(C)C2=O	6	2	-0.5
71	Cc1noc(C)c1S(=O)(=O)N(C)C[C@H]1Oc2ccc(NC(=O)Nc3ccccc3)cc2CC(=O)N([C@@H](C)CO)C[C@H]1C	2	-4	0.3
72	C[C@@H]1COCc2cnnn2CC[C@H](Cc2ccccc2)C(=O)N1	2	6	0.2

# Later entries.
item	Molecule	Ecoli rRNA inh	Ecoli rRNA inh OD600	Ecoli rRNA inh RFP
73	COc1cccc(NC(=O)N2CC(=O)N3[C@H](C2)[C@@H](c2ccc(C#CC4CCCCC4)cc2)[C@@H]3CO)c1	5	-4	0.6
74	Cc1ccc(S(=O)(=O)Nc2ccc3c(c2)C(=O)N([C@H](C)CO)C[C@H](C)[C@H](CN(C)C(=O)Nc2ccc4c(c2)OCO4)O3)cc1	0	-10	1.1
75	CCCC#Cc1ccc([C@H]2[C@@H](CO)N3C(=O)CN(C(=O)c4cccc(F)c4)C[C@H]23)cc1	3	-21	6.0
76	C[C@@H]1CN([C@@H](C)CO)C(=O)c2cc(NS(=O)(=O)c3ccccc3)ccc2O[C@@H]1CN(C)S(=O)(=O)c1ccc(F)cc1	-4	-7	2.0
77	CCCNC(=O)[C@@H]1[C@@H](CO)[C@@H]2Cn3c(ccc(/C=C/c4ccccc4)c3=O)[C@H]1N2CCC	0	3	-0.2
78	COc1ccc(NC(=O)N(C)C[C@H]2Oc3c(NS(=O)(=O)c4ccccc4)cccc3C(=O)N([C@@H](C)CO)C[C@@H]2C)cc1	1	-1	-1.2
79	CC(=O)Nc1ccc2c(c1)CC(=O)N(C)C[C@@H](C)[C@@H](CN(C)C(=O)NC(C)C)O2	3	3	-0.5

# Assay outcomes deposited in PubChem BioAssay by Broad Institute.

# A portion of the library, so the mix of outcomes need not match the whole.
